A1 inhib = inducers of caspase activity in MEF A1-2A-BIM cells, primary screen, A1 inhibitor project, cell-based, CaspaseGlo luminescence | caspase-Glo luminescence, 3 h; percent of clofoctol signal, DMSO as zero | caspase activation, % (no concentration beside the values) | 21,000 tested, 0.51% active | AID 2241, 2010;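 active = most replicate scores above 10, or exactly half above 10 with mean activity above 10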;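 note: effector caspase 3 and 7 activity cleaving a DEVD luciferin substrate; 50 nL library stock added to about 30 µL; numbers are from one replicate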
BJeLR viability = BJeLR cell viability loss, primary screen, luminescence, CellTiterGlo ATP; BJeLR fibroblasts viability, 48 h; HRASV12, hTERT and SV40 LT/ST transformed; viability loss activity score, % (no concentration beside the values); 30,000 tested, 0.64% active; AID 2275, 2010; in the data active = viability loss activity score above about 50%; about a fifth of its hits are not listed in these tables;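 note: higher score means fewer live cells and less ATP luminescence; stock transfer was 50 or 100 nL into about 30 µL; 0% = vehicle wells and 100% = a reference killing control; one replicate is shown; the record names a cut of 85%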
The depositor's hits bear a star; x = no result given.

Each structure is followed by: A1 inhib, BJeLR viability
CC1CCCN(CCCNC(=O)CCn2nc(-c3ccccc3)ccc2=O)C1 (centres undefined)
    -0.3, 0.7
Cc1cc2ccccc2c(=O)n1CC(=O)NCC(=O)Nc1nc2ccccc2s1
    x, 2.2
C[C@@H]1O[C@@H](OC2C(O[C@H]3[C@H](O[C@H]4CC[C@@]5(C)C(CC[C@]6(C)C5CC=C5C7CC(C)(C)C(O)C(O)[C@]7(C)CC[C@]56C)C4(C)C)O[C@H](C(=O)O)[C@@H](O)[C@@H]3O)OC(CO)C(O)C2O)[C@H](O)[C@H](O)[C@H]1OC1OCC(O)C(O)C1O (some centres undefined)
    -0.3, 0.0
FC(F)(F)c1ccccc1NC(=S)Nc1ccc(-c2csnn2)cc1
    1.5, 6.6
C[C@@H]1CN([C@@H](C)CO)C(=O)c2cc(NC(=O)Nc3ccccc3)ccc2O[C@H]1CN(C)Cc1ccc(Cl)c(Cl)c1
    0.7, 2.8
CC(C)CCN1CC(C(=O)NC2CCCCCC2)CC1=O (centres undefined)
    0.4, -2.8
NNC(=O)CS(=O)(=O)c1ccc(C(F)(F)F)cn1
    0.7, -0.7
COc1ccc(NC(=O)Nc2cccc3c2O[C@H](CN(C)C)[C@@H](C)CN([C@H](C)CO)C3=O)cc1
    x, 1.0
COc1cc2cc(Oc3ccc4ccc(=O)oc4c3)c(=O)oc2cc1OC1OC(COC(=O)CC(C)(O)CC(=O)O)C(O)C(O)C1O (centres undefined)
    0.1, -3.9
Clc1ccc(OCCN2CCNCC2)cc1
    x, -3.4
C[C@H](CO)N1C[C@H](C)[C@@H](CN(C)Cc2ccccc2)Oc2c(NS(=O)(=O)c3cccs3)cccc2C1=O
    x, -2.0
COC(=O)C1=NNC(c2ccccc2)(c2ccccc2)C1
    -0.7, -0.1
COc1c(O)cc2oc(-c3ccc(O)cc3)cc(=O)c2c1O
    -3.4, -7.5
C=C1[C@@H]2CC[C@H]3[C@@]4(C)C(C[C@H](OC(=O)[C@]5(C)O[C@@H]5C)[C@]3(C2)[C@@H]1OC(C)=O)[C@](C)(C(=O)OC)CC[C@H]4OC(C)=O (some centres undefined)
    -0.3, 8.2
CC(C)Cc1ccc(C(C)c2nc(-c3cccs3)no2)cc1 (centres undefined)
    0.7, -2.4
CC(C)NC(=O)Nc1cccc2c1O[C@@H](CN(C)Cc1ccc(C(F)(F)F)cc1)[C@H](C)CN([C@H](C)CO)C2=O
    x, -4.7
C[C@@H]1CN([C@@H](C)CO)C(=O)c2cccc(NS(=O)(=O)c3ccc(F)cc3)c2O[C@@H]1CN(C)C(=O)Nc1ccc(F)cc1
    x, 0.8
Cc1ccc(S(=O)(=O)Nc2cccc3c2O[C@@H](CN(C)Cc2ccc4c(c2)OCO4)[C@H](C)CN([C@H](C)CO)C3=O)cc1
    x, -0.4
C[C@@H]1CN([C@H](C)CO)C(=O)c2cc(NC(=O)CCCN(C)C)ccc2O[C@@H]1CN(C)C(=O)NC1CCCCC1
    -0.5, 2.1
C[C@H](CO)N1C[C@H](C)[C@H](CN(C)CC2CCCCC2)Oc2c(NC(=O)Nc3ccc4c(c3)OCO4)cccc2C1=O
    x, -5.0
COC(=O)CSc1ccc2c(N)c(C(=O)OC)sc2c1
    -4.8, 4.3
O=c1[nH]ncc(N2CCCCCC2)c1Cl
    0.6, -1.2
OCCN1CCN(CC#CCn2c3ccccc3c3ccccc32)CC1
    0.4, -1.5
CC(=O)Oc1ccc(O)cc1
    -1.9, -1.7
CCC(=O)Nc1ncc2c(n1)CC(C)(C)CC2=O
    -0.3, -4.2
O=c1c(C=Nc2ccccc2)c(Nc2ccccc2)[nH]n1-c1ccccc1
    -1.4, 3.5
S=C1NCCN1CCOc1ccccc1
    0.2, -6.1
CCOC(=O)c1c(C)n(C)c2ccc(O)c(S(=O)(=O)c3ccc(C)cc3)c12
    0.1, -4.3
COc1ccc(NC(=O)c2cc3c(s2)-c2ccccc2SC3)cc1
    -0.6, 8.6
O=c1n(Cc2ccc(F)cc2)nc2n1-c1ccccc1SC2
    -0.7, 2.7
CS(=O)(=O)N1CCN(C(=O)c2ccccc2)C1
    2.5, 1.4
O=C(CCC1CCCCC1)Nc1nc2ccccc2s1
    -1.8, -5.5
CCCc1nc(SCC(=O)c2ccccc2Cl)[nH]c(=O)c1C
    1.5, 1.1
CCSC1=N/C(=C\c2cc(Br)c(OC(C)=O)c(OC)c2)C(=O)S1
    x, -1.8
C[C@H](CO)N1C[C@H](C)[C@H](CN(C)Cc2ccc(C(F)(F)F)cc2)Oc2c(NS(C)(=O)=O)cccc2C1=O
    x, 2.4
Cc1noc(C)c1S(=O)(=O)Nc1ccc2c(c1)C(=O)N([C@H](C)CO)C[C@H](C)[C@H](CN(C)CC1CCCCC1)O2
    0.5, -1.2
C[C@@H]1CN([C@@H](C)CO)C(=O)c2cccc(NS(=O)(=O)c3cccs3)c2O[C@@H]1CN(C)S(=O)(=O)c1ccccc1
    x, 3.1
Cc1cc(C(=O)Nc2cccc3c2O[C@@H](CN(C)C)[C@H](C)CN([C@H](C)CO)C3=O)n(C)n1
    x, -0.7
COc1ccc(CN(C)C[C@H]2Oc3ccc(NC(=O)Nc4cccc5ccccc45)cc3C(=O)N([C@H](C)CO)C[C@H]2C)cc1
    0.2, -3.8
COc1cc(CCC(C)NC(=O)c2ccco2)ccc1OC(=O)c1ccco1 (centres undefined)
    x, -3.3
CC(C)CNC(=O)c1cc(-c2ccccc2O)on1
    x, 1.2
Nc1ccc(Br)cc1C(O)c1ccccc1 (centres undefined)
    0.3, -3.9
Cc1noc(C)c1S(=O)(=O)Nc1ccc2c(c1)C(=O)N([C@@H](C)CO)C[C@H](C)[C@@H](CN(C)Cc1ccc3c(c1)OCO3)O2
    -0.8, 3.9
CC(C)NC(=O)Nc1cccc2c1O[C@H](CN(C)C(=O)Nc1cccc3ccccc13)[C@H](C)CN([C@@H](C)CO)C2=O
    x, 0.2
CCOC(=O)c1nonc1N
    0.1, 4.7
CCC(=O)Nc1cccc(NC(=O)c2ccccc2Cl)c1
    x, 0.5
C[C@@H]1CN([C@H](C)CO)C(=O)c2cc(NC(=O)Cc3cn(C)c4ccccc34)ccc2O[C@@H]1CN(C)Cc1ccc(C(=O)O)cc1
    0.9, -2.5
CC(C)c1ccc(N(CC(=O)N2CCN(Cc3ccccc3)CC2)S(C)(=O)=O)cc1
    -0.4, 14.2
CNC(=O)CC1C(=O)N(c2ccc(Cl)cc2)C(=S)N1NC(=O)c1cccc(F)c1 (centres undefined)
    1.2, -1.5
CCC1(c2cccc(OC(=O)C3CCCCC3)c2)CCCCN(C)C1=O (centres undefined)
    0.7, -1.4
CNC[C@@H]1Oc2ccc(NC(=O)C3CCCCC3)cc2C(=O)N([C@@H](C)CO)C[C@H]1C
    -0.9, -1.3
C[C@@H]1CN([C@H](C)CO)C(=O)c2cc(NS(=O)(=O)c3cn(C)cn3)ccc2O[C@@H]1CN(C)C(=O)NC1CCCCC1
    0.2, 1.9
COc1ccc(-c2nc(N)ncc2-c2cscn2)c(O)c1
    0.9, -0.5
COc1ccc(NC(=O)Nc2cccc3c2O[C@H](CN(C)Cc2ccc(Oc4ccccc4)cc2)[C@H](C)CN([C@@H](C)CO)C3=O)cc1
    x, -1.2
C[C@H](CO)N1C[C@H](C)[C@H](CN(C)Cc2ccncc2)Oc2ccc(NC(=O)CCC(F)(F)F)cc2C1=O
    0.4, -0.2
COc1ccc(S(=O)(=O)Nc2cccc3c2O[C@@H](CN(C)S(C)(=O)=O)[C@@H](C)CN([C@H](C)CO)C3=O)cc1
    x, 0.4
Cc1ccc(S(=O)(=O)Nc2ccc3c(c2)C(=O)N([C@@H](C)CO)C[C@H](C)[C@@H](CN(C)C(=O)Nc2cccc4ccccc24)O3)cc1
    -0.3, -1.0
N/C(C[n+]1ccccc1)=N\O
    0.4, -4.5
C=C(C)CC(Nc1ccccc1F)c1ccco1 (centres undefined)
    -0.1, -15.8
CNC[C@H]1Oc2ccc(NC(=O)Nc3ccc4c(c3)OCO4)cc2C(=O)N([C@@H](C)CO)C[C@@H]1C
    -0.3, 0.3

Further compounds follow:
Each structure is followed by: A1 inhib, BJeLR viability
CCc1ccc(NC(=O)CN(c2ccc3c(c2)OCO3)S(=O)(=O)c2c(C)noc2C)cc1
    x, -1.5
COC(=O)c1ccc(CSc2nncn2N)o1
    1.0, 6.2
C[C@@H]1CN([C@H](C)CO)C(=O)c2cc(NC(=O)Cc3cn(C)c4ccccc34)ccc2O[C@@H]1CN(C)CC1CC1
    0.6, -8.1
Cc1noc(C)c1S(=O)(=O)Nc1ccc2c(c1)C(=O)N([C@H](C)CO)C[C@H](C)[C@@H](CN(C)C(=O)NC1CCCCC1)O2
    -0.9, 0.7
C[C@@H]1CN([C@H](C)CO)C(=O)c2cccc(NS(=O)(=O)c3cn(C)cn3)c2O[C@@H]1CN(C)S(=O)(=O)c1ccccc1
    x, -0.6
C[C@H]1CN([C@@H](C)CO)C(=O)c2cccc(NS(=O)(=O)c3cn(C)cn3)c2O[C@@H]1CN(C)C(=O)Nc1ccc2c(c1)OCO2
    x, 1.6
CCCc1nc2ccccc2c2nc(N)nn12
    1.1, -14.2
CNC[C@H]1Oc2ccc(N(C)C)cc2C(=O)N([C@@H](C)CO)C[C@@H]1C
    -0.6, -1.1
Cc1cc(C(=O)Nc2cccc3c2O[C@H](CN(C)C(=O)NC2CCCCC2)[C@H](C)CN([C@H](C)CO)C3=O)n(C)n1
    x, 0.6
CCOC(=O)c1c(CN2CCCCC2)n(-c2ccccc2)c2ccc(OC(C)=O)cc12
    -0.1, -3.5
O=c1nc2n(-c3ccc(Br)cc3)c3cccc(Cl)c3cc-2c(=O)[nH]1
    0.9, -1.0
Cc1ccccc1-c1nnc(-c2cc(C(C)(C)C)nn2Cc2ccc(F)cc2)o1
    0.6, 4.3
Cc1cc(C(=O)Nc2cccc3c2O[C@@H](CN(C)CC2CC2)[C@H](C)CN([C@@H](C)CO)C3=O)n(C)n1
    x, 2.4
C[C@H](CO)N1C[C@H](C)[C@H](CN(C)Cc2ccc(C(=O)O)cc2)Oc2c(NS(=O)(=O)c3cn(C)cn3)cccc2C1=O
    x, -2.1
C[C@H]1CN([C@@H](C)CO)C(=O)c2cccc(NC(=O)C3CCCCC3)c2O[C@@H]1CN(C)CC1CC1
    x, -2.5
C[C@H]1CN([C@@H](C)CO)C(=O)c2cccc(NS(=O)(=O)c3cccs3)c2O[C@@H]1CN(C)S(=O)(=O)c1ccc(F)cc1
    x, -3.1
CCCN(c1ccccc1OC)S(=O)(=O)c1cc(Br)cnc1N
    -1.1, 6.5
O=c1ccc2cc(S(=O)(=O)N3CCCCC3)ccc2[nH]1
    0.6, 0.8
C=CCc1c(C)nc(N)[nH]c1=O
    0.7, -3.8
Cc1noc(C)c1S(=O)(=O)N(C)C[C@@H]1Oc2ccc(NC(=O)CCCN(C)C)cc2C(=O)N([C@@H](C)CO)C[C@@H]1C
    1.0, 0.7

3 of the compounds above, with each value named:
C[C@H](CO)N1C[C@H](C)[C@H](CN(C)Cc2ccc(C(=O)O)cc2)Oc2c(NS(=O)(=O)c3cn(C)cn3)cccc2C1=O
- A1 inhib: x
- BJeLR viability: -2.1
Cc1noc(C)c1S(=O)(=O)Nc1ccc2c(c1)C(=O)N([C@H](C)CO)C[C@H](C)[C@@H](CN(C)C(=O)NC1CCCCC1)O2
- A1 inhib: -0.9
- BJeLR viability: 0.7
O=c1ccc2cc(S(=O)(=O)N3CCCCC3)ccc2[nH]1
- A1 inhib: 0.6
- BJeLR viability: 0.8

Entries of single compounds, looked up by structure. Screens in order: A1 inhib, BJeLR viability
Results for O=c1nc2n(-c3ccc(Br)cc3)c3cccc(Cl)c3cc-2c(=O)[nH]1 → 0.9, -1.0
Results for Cc1noc(C)c1S(=O)(=O)Nc1ccc2c(c1)C(=O)N([C@H](C)CO)C[C@H](C)[C@@H](CN(C)C(=O)NC1CCCCC1)O2 → -0.9, 0.7
Results for C[C@H]1CN([C@@H](C)CO)C(=O)c2cccc(NS(=O)(=O)c3cccs3)c2O[C@@H]1CN(C)S(=O)(=O)c1ccc(F)cc1 → x, -3.1
Results for C[C@H]1CN([C@@H](C)CO)C(=O)c2cccc(NC(=O)C3CCCCC3)c2O[C@@H]1CN(C)CC1CC1 → x, -2.5

Later entries:
Each structure is followed by: A1 inhib, BJeLR viability
COc1ccc(N2C(=O)CC(c3cn(Cc4ccccc4)c4ccccc34)C2=O)cc1 (centres undefined)
    -0.5, 3.3
C[C@@H]1CN([C@@H](C)CO)C(=O)c2cccc(NC(=O)C3CC3)c2O[C@@H]1CN(C)Cc1ccc(Cl)c(Cl)c1
    x, -1.4
C[C@@H]1CN([C@H](C)CO)C(=O)c2cccc(NC(=O)c3ccc(-c4nccs4)cc3)c2O[C@@H]1CN(C)CC1CC1
    x, 1.5
COc1ccc(NC(=O)N(C)C[C@@H]2Oc3ccc(NC(=O)CCN4CCOCC4)cc3C(=O)N([C@H](C)CO)C[C@@H]2C)cc1
    0.6, -0.3
COc1ccc(-c2nc3c(c(SC)n2)COC(C)(C)C3)cc1
    x, -4.9
O=C(NCCc1ccccc1)C1CC(=O)N(CCc2ccccc2)C(=Nc2ccc(F)cc2)S1 (centres undefined)
    -0.5, -4.3
C[C@H]1CN([C@@H](C)CO)C(=O)c2cccc(NC(=O)Nc3ccc(F)cc3)c2O[C@@H]1CN(C)CC1CCCCC1
    x, -2.8
CNC[C@H]1Oc2c(NS(C)(=O)=O)cccc2C(=O)N([C@@H](C)CO)C[C@@H]1C
    x, -4.0
COc1ccc(Cl)cc1NC=C1C(=O)OC2(CCCCC2)OC1=O
    -0.3, 1.3
Cc1noc(C)c1S(=O)(=O)Nc1ccc2c(c1)C(=O)N([C@H](C)CO)C[C@@H](C)[C@H](CN(C)Cc1ccc(C(F)(F)F)cc1)O2
    0.4, 1.0

Screening data deposited in PubChem by Broad Institute.

Not all compounds are listed, so the mix of outcomes need not match the whole.
